B2AR ag: human beta-2 adrenergic receptor agonism by FAP. response, % (test concentration not listed). Am2.2-beta2AR cells, FAP receptor internalization, flow cytometry; reference of the scale not given here. actives 0.43% (n = 340,000);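 active means response above a set limit, near 3 SD of response in nonfluorescent compounds, cut at about 42% in these data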;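 further: stock transfer was 100 nL into about 11 µL; a reference agonist was the positive control; negative values mostly stem from fluorescent compounds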
UCH37 DUB inh: inhibitors of human deubiquitinating enzyme UCH37 | Q9Y5K5 | purified proteasome/UCH37, Ub-AMC cleavage fluorescence | inhibition, % (concentration not given with the values) | actives 0.33% (n = 330,000) | AID 588478;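 active means mean of two replicates above 20%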;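 further: 0% = compound-free wells with enzyme and 100% = wells lacking proteasome; stock transfer was 100 nL into about 20 µL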
Target sequence (Q9Y5K5 whole entry, looked up): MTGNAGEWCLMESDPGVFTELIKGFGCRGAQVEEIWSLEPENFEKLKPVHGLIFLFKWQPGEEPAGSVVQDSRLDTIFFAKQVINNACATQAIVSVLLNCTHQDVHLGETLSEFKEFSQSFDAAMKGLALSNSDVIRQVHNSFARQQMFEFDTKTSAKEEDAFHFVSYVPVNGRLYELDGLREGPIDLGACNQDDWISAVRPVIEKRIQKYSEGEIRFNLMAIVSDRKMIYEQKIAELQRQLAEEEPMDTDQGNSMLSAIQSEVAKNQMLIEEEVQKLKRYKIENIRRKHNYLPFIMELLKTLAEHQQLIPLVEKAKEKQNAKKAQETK
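Reagent: Ub-AMC substrate; assay system: Proteasome-associated human UCH37 deubiquitinase; controls: no-proteasome and no-compound wells; read-out: % inhibition of Ub-AMC cleavage fluorescence; timing: 30 min preincubation with enzyme, 25 min cleavage at room temperature; signal: AMC fluorescence from Ub-AMC cleavage, excitation 355 nm, emission 460 nm; buffer or medium: Tris-HCl pH 7.4 plus ovalbumin, ATP-MgCl2, DTT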
FGF22 binding: FGF22 (human) thermal shift binding; recombinant FGF22 thermal shift, SYPRO orange fluorescence; percent of sucrose octasulfate shift, DMSO zero; calls only at 9.99 µM; Q9HCT0; actives 1.5% (n = 340,000);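 active means melting point raised past a set limit in the mean and every replicate; three in four hits are not shown here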
Target sequence (Q9HCT0 whole entry, looked up): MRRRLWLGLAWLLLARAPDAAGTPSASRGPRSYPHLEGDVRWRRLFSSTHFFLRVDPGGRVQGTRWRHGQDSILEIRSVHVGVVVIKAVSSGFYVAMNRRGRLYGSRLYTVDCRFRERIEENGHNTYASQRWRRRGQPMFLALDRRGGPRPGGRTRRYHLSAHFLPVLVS
ALR H2O2 inh: blocks human ALR sulfhydryl oxidase activity; purified ALR, DTT oxidation, H2O2 HRP-luminol luminescence; inhibition, % (no concentration beside the values); P55789; actives 3.8% (n = 290,000); AID 485317;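 active means mean and each replicate at 75% or more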;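 further: stock transfer was 7.5 nL into about 7.5 µL; 0% = neutral wells and 100% = wells with inactivated enzyme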
Target sequence (P55789 whole entry, looked up): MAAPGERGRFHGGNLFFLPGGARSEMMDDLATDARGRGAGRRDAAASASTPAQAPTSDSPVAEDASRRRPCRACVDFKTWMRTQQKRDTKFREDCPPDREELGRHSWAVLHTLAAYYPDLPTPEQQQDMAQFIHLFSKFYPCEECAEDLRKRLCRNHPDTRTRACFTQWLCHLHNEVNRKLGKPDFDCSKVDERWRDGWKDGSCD
rRNA inh HTS: inhibits bacterial ribosomal RNA function over humanized ribosomes. actives 1.6% (n = 350,000). AID 720706. GFP signal change (wild-type ribosome), % (test concentration not listed). E. coli WT GFP vs humanized-ribosome RFP mutants, fluorescence, 24 h; active compounds read low; DMSO median 0, no signal -100;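 active means significant combined selectivity score with lowered wild-type GFP, culture density cut under 30%, mutant RFP and density less affected; inactive means any of these conditions unmet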; further: one replicate is shown; some compounds called inactive have numbers as strong as hits
E coli growth: E. coli growth inhibition. AID 1053175. actives 0.21% (n = 330,000). OD600 absorbance (concentration not given with the values). Escherichia coli growth, OD600, 23 h; active compounds read low;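 active means OD600 absorbance below the run mean of sample wells minus 3.6 SD, in any replicate, cut at about 0.56 in these data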;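 further: stock transfer was 300 nL into about 60 µL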
HNF4A DNA FP: change in binding of human HNF4 alpha to DNA. actives 0.3% (n = 360,000). P41235. activity change, % at 10 µM. HNF4a-FITC DNA binding, fluorescence polarization, 1 h; in the data active means activity change above about 30%, passing the limit was not always enough;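 further: controls were the assay level and a saturating level of protein; the project sought stronger binding though the title names inhibitors; some compounds called inactive have numbers as strong as hits; positive values seem to mean higher polarization but the record does not say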
rRNA inh HTS OD600: recorded beside rRNA inh HTS, whose call it bears; OD600 change, %; measured here: OD600 growth;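 optical density of the mix in the first replicate; 0 = DMSO median and -100 = no signal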
rRNA inh HTS RFP: second read-out of rRNA inh HTS, no call of its own (marks repeat the call); RFP signal change, %; measured here: RFP humanized mutant strains;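 first replicate; 0 = DMSO median and -100 = no signal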
An asterisk follows results filed as active; i = inactive; nt = no result given; & = joins results of further samples.

Molecule,HNF4A DNA FP,ALR H2O2 inh,UCH37 DUB inh,B2AR ag,E coli growth,FGF22 binding,rRNA inh HTS,rRNA inh HTS RFP,rRNA inh HTS OD600
CCN(CC)CCNC(=O)C(=O)Nc1cc2c3c(c1)CCN3C(=O)CC2,-0.9,-0.7,2.3,-0.1,0.721,i,1.4,-2.5,4.6
O=C(COc1ccc(Cl)cc1Cl)NNC(=O)c1cccnc1,-1.3,-12.1,0.1,2.6,0.695,i,0.3,0.7,10.5
CCc1nc(CN(C)C(=O)C2CCC(=O)N(Cc3cccc(F)c3)C2)no1 (stereo not drawn),-2.9,-5.7,5.8,-3.9,0.695,i,11.3,1.6,11.4
COc1ccccc1-c1csc(Cc2nnc3n2CCCCC3)n1,-2.3,0.3,0.7,1.1,0.735,nt,nt,nt,nt
O=C1NC(=S)N/C1=C/c1cccc([N+](=O)[O-])c1O,3.2,-12.6,nt,-1.2,nt,nt,nt,nt,nt
COc1ccc(F)cc1-c1cc(C(=O)NCc2ccc(C(F)(F)F)cc2)[nH]n1,1.4,nt,nt,nt,nt,i,-1.9,-2.6,4.7
CC(C)NC(=O)N(C)C[C@H]1OCc2cnnn2CCCC(=O)N([C@H](C)CO)C[C@H]1C,1.1,nt,nt,nt,nt,i,19.1&1.8,1.1&-1.5,9.2&8.1
COC(=O)/C(=C/Nc1ccc(O)cc1)[N+](=O)[O-],1.3,nt,6.8,-2.3,0.739,nt,nt,nt,nt
Cc1nc(-c2cccc(NC(=O)c3ccco3)c2)cs1,0.9,41.2,4.2,-16.0,0.64,i,-3.0,1.0,5.0
Cc1ccc[n+](CC(=O)c2ccc(-c3ccccc3)cc2)c1,0.4,19.0,-1.1,0.8,0.57,i,-1.3,-2.1,-2.8
O=C1c2ccccc2C(Nc2ccc3c(c2)OCCO3)N1c1ccccn1 (stereo not drawn),-1.8,6.2,-0.7,4.2,0.732,i,-6.2,-4.3,-13.4
COc1ccc(CCN2C(=O)NC(NC(=O)CCc3ccccc3)(C(F)(F)F)C2=O)cc1OC (stereo not drawn),-5.2,-8.2,5.0,-2.2,0.653,i,-14.6,-7.8,-15.1
O=C(NCc1ccccn1)C1CC(c2ccccc2Cl)=NO1 (stereo not drawn),-2.4,-5.0,-2.9,-2.8,0.627,i,15.9,2.3,9.9
CCOc1ccccc1NC(=S)NNS(=O)(=O)c1c(C)cc(C)cc1C,2.1,49.0,5.2,-3.7,0.708,i,-15.9*,5.4*,-1.3*
CCCCN1C(=O)C(CC(=O)NCc2cccc3ccccc23)CC(C(=O)N2CCOCC2)=C1C (stereo not drawn),-1.3,nt,nt,nt,nt,i,-7.5,1.0,-0.5

Molecule,HNF4A DNA FP,ALR H2O2 inh,UCH37 DUB inh,B2AR ag,E coli growth,FGF22 binding,rRNA inh HTS,rRNA inh HTS RFP,rRNA inh HTS OD600
CCN(CC)C(=O)c1sc(NC(=O)c2cc(-c3ccc(C)s3)nc3ccccc23)c(C(=O)OC)c1C,0.6,-5.5,-10.4,-0.1,0.787,nt,nt,nt,nt
CN1CCN(C(=O)c2cccc(-c3ccc4nccn4c3)c2)CC1,0.5,nt,nt,nt,nt,i,12.9,0.4,19.1
CC(=O)C1=C(c2ccccc2)NC(=O)NC1c1ccccc1OCC#N (stereo not drawn),-0.1,3.7,4.7,13.5,0.728,i,5.5,3.2,5.2
COc1cccc(-c2noc(CCC(=O)NC3CCCCC3)n2)c1,2.5,-0.5,1.6,7.5,0.67,nt,nt,nt,nt
COC(=O)c1sccc1NC(=O)Nc1cccc(F)c1,-4.9,-3.3,1.2,4.9,0.681,i,6.1,1.0,14.7
CC(C)c1nnc(NC(=O)Cc2cccs2)s1,2.0,-7.4,2.6,-0.2,0.683,i,3.3,-2.6,10.8
O=C(NCCN1CCC(n2c(=O)[nH]c3ccccc32)CC1)c1ccc2ccccc2c1,-2.7,nt,nt,nt,nt,i,-10.1,3.2,-21.0
O=C(O)c1ccc(CSc2nnc(Cc3ccccc3)o2)cc1,-1.3,-9.8,0.9,6.3,0.736,nt,nt,nt,nt
O=C(CSc1nnc(C2CC2)n1Cc1ccco1)NCC(F)(F)F,0.4,-10.6,-1.0,5.2,0.59,i,20.1,3.3,14.2
N#C/C(=C\c1ccccc1)c1n[nH]c(Cn2cncn2)n1,-2.9,6.1,-2.5,3.2,0.777,nt,nt,nt,nt
CC(NC(=O)Nc1ccccc1Cl)c1ccc2c(c1)OCO2 (stereo not drawn),3.8,-6.8,2.2,4.1,0.754,i,18.1,2.1,18.9
CC(=O)c1ccc(S(=O)(=O)N2CCN(CC(=O)Nc3ccnn3C3CCCC3)CC2)cc1,-2.1,nt,2.7,0.8,0.672,i,7.5,-1.2,1.5
Cc1ccc(Oc2ccc(OCC(=O)Nc3ccncc3)cc2)cc1,-1.2,-6.7,nt,nt,nt,i,-16.3,3.1,-43.7
COC(=O)c1sccc1NC(=O)c1ccnn1C,5.4,-2.2,3.6,7.8,0.696,i,6.3,-1.5,-4.6
CC(C)N(C(=O)COC(=O)c1ccc(O)cc1)C(C)C,0.0,0.2,1.6,-13.3,0.785,nt,nt,nt,nt

Molecule,HNF4A DNA FP,ALR H2O2 inh,UCH37 DUB inh,B2AR ag,E coli growth,FGF22 binding,rRNA inh HTS,rRNA inh HTS RFP,rRNA inh HTS OD600
Cc1ccc(C(=O)N2CCCCC2)cc1NC1=C(Cl)C(=O)N(Cc2ccccc2)C1=O,-1.0,nt,1.1,-0.1,0.7,i,5.6,-0.4,-1.4
O=C(c1c[nH]c2ccccc12)C(O)C(c1ccccc1)N1CCOCC1 (stereo not drawn),-0.8,-9.7,-0.4,-0.2,0.689,nt,nt,nt,nt
Cc1ccc(S(=O)(=O)Nc2cc(Cl)c(O)c3ncccc23)cc1,-0.2,-4.1,nt,3.6,nt,i,-40.2,-3.9,-57.6
CCc1ccc(S(=O)(=O)NCc2cn3ccsc3n2)s1,0.6,-6.6,2.2,-6.9,0.703,nt,nt,nt,nt
COc1ccc(C(=O)CSc2n[nH]c(-c3ccncc3)n2)cc1[N+](=O)[O-],2.9,16.1,1.8,-0.2,0.693,nt,nt,nt,nt
N#CCCN(C(=O)COC(=O)c1cc(=O)[nH]c2ccccc12)c1ccccc1,1.0,-5.5,-26.0,-1.9,0.666,i,4.3,2.8,-1.0
Cc1cc(C)c(NC(=O)C2CCN(C(=O)c3ccco3)CC2)c(C)c1,-1.9,-71.4,2.5,0.3,0.686,i,-1.1,-4.2,2.7
O=C(CSc1nn(-c2ccc(Cl)cc2)c(=S)s1)N1CCN(C(=O)c2ccco2)CC1,-4.3,-14.2,2.5,-1.6,0.65,nt,nt,nt,nt
CCN(CC)S(=O)(=O)c1ccc(-n2cnnn2)c(C)c1,-3.2,-0.7,5.6,-0.6,0.693,nt,nt,nt,nt
O=C(OCc1ccccc1)C1CCCN1C(=O)c1ccccc1[N+](=O)[O-] (stereo not drawn),9.0,0.9,-0.3,0.4,0.757,nt,nt,nt,nt
CN(C)S(=O)(=O)c1ccccc1C#N,-1.1,-3.1,1.9,7.0,0.666,i,9.8,2.5,0.0
CC(=O)CCS(=O)(=O)c1ccc(NC(C)=O)cc1,1.5,3.4,2.1,5.2,0.674,nt,nt,nt,nt
COC(=O)c1ccc(CSc2nnc(-c3ccc4c(c3)OCO4)n2-c2ccccc2)o1,0.4,-6.2,4.8,0.8,0.677,nt,nt,nt,nt
CCCSc1nc2sc3c(c2c(=O)n1-c1ccc(OC)cc1)CCN(C)C3,9.0,nt,6.1,-0.5,0.698,i,-8.0,7.2,-11.8
Cc1cc(C)cc(C(=O)NN2CCOCC2)c1,-0.7,7.4,1.2,-5.2,0.659,i,0.7,-0.2,5.4

2 neighbouring entries already listed:
Molecule,HNF4A DNA FP,ALR H2O2 inh,UCH37 DUB inh,B2AR ag,E coli growth,FGF22 binding,rRNA inh HTS,rRNA inh HTS RFP,rRNA inh HTS OD600
CCCSc1nc2sc3c(c2c(=O)n1-c1ccc(OC)cc1)CCN(C)C3,9.0,nt,6.1,-0.5,0.698,i,-8.0,7.2,-11.8
Cc1cc(C)cc(C(=O)NN2CCOCC2)c1,-0.7,7.4,1.2,-5.2,0.659,i,0.7,-0.2,5.4

Other results follow:
Molecule,HNF4A DNA FP,ALR H2O2 inh,UCH37 DUB inh,B2AR ag,E coli growth,FGF22 binding,rRNA inh HTS,rRNA inh HTS RFP,rRNA inh HTS OD600
O=C(Nc1ccccc1F)c1csc([C@@H]2C[C@H](O)[C@@H](CO)O2)n1,3.1,nt,nt,nt,nt,i,22.2,-3.6,21.5
CCOc1ccc(NS(=O)(=O)c2cc(NC(=O)C3CC3)ccc2C)cc1Br,0.5,-0.8,0.5,-5.8,0.695,i,-53.4,-14.1,-70.2
COc1ccc(OC)c(CCNC(=O)CCC(=O)N2CCOc3ccc(C)cc32)c1,-1.5,4.7,1.5,-8.8,0.725,i,-11.8,-2.9,-16.9
CCOc1ccc(NC(=O)CN(C)C(=O)c2c(C)nn(-c3ccc(F)cc3)c2Cl)cc1OCC,0.2,-8.9,0.5,3.6,0.692,i,1.9,2.3,11.1
COc1ccc(CN2CCNC(=O)C2CC(=O)N(C)Cc2ccccn2)cc1OC (stereo not drawn),1.1,-2.6,1.5,29.9,0.671,i,12.2,-0.6,12.6
COc1cc2c(cc1OC)CN(C(=O)CN1C(=O)NC3(CCCCC3C)C1=O)CC2 (stereo not drawn),-2.9,nt,-0.6,-4.6,0.694,nt,5.2,-1.7,10.8
COc1cc(C)c(Cl)cc1S(=O)(=O)NCCN1CCOCC1,-1.1,-0.1,0.9,5.6,0.687,nt,nt,nt,nt
O=C(CN(CC1CCCO1)C(=O)CNS(=O)(=O)c1ccc(Cl)cc1)NC1CCCC1 (stereo not drawn),-0.5,nt,0.8,-8.1,0.666,i,6.9,2.2,7.0
O=C(CSc1nnc(N2CCCC2)n1-c1cccc(Cl)c1)N1CCN(c2ccccn2)CC1,-5.0,nt,nt,nt,nt,i,-6.6,-3.0,-18.9
CC(=O)c1ccc(S(=O)(=O)N2CCN(c3nc(-c4cccnc4)nc4ccccc34)CC2)cc1,0.6,-8.7,1.7,27.1,0.673,i,-4.3,11.6,-6.5
O=C1C(Cc2ccccc2)SC(=Nc2ccccc2)N1c1ccccc1 (stereo not drawn),0.7,4.9,0.7,1.8,0.745,nt,nt,nt,nt
O=C(CSC(=S)N1CCCC1)NCC(=O)Nc1ccccc1Br,-0.6,nt,nt,-2.8,nt,i,4.1,1.0,11.5
CCCCC(NC(C)=O)c1nc2ccccc2[nH]1 (stereo not drawn),4.8,-2.7,2.6,2.8,0.781,i,-0.5,-2.2,6.0
CCCC1(C)NC(=O)c2ccccc2O1 (stereo not drawn),3.3,-6.9,2.1,3.4,0.683,i,8.2,0.4,7.4
CCCCCN1C/C=C\C(c2ccc(OC)cc2)N(Cc2ccc(F)cc2)C(=O)C1 (stereo not drawn),1.6,nt,3.4,11.9,nt,i,-3.6,6.4,-6.9

Molecule,HNF4A DNA FP,ALR H2O2 inh,UCH37 DUB inh,B2AR ag,E coli growth,FGF22 binding,rRNA inh HTS,rRNA inh HTS RFP,rRNA inh HTS OD600
Cc1cccc(/C=C/C(=O)c2ccc(N3CCOCC3)cc2)c1,nt,-10.0,2.4,nt,0.676,i,16.1,5.8,22.9
Cc1nc(CN(C)Cc2nc(Cc3cccc(F)c3)no2)cs1,0.8,-11.6,-0.8,-1.8,0.709,nt,6.4,0.3,5.3
Cn1nccc1C(=O)N1CCCC(N2CCN(c3cccc(C(F)(F)F)c3)CC2)C1 (stereo not drawn),2.5,2.4,nt,1.3,nt,i,-1.9,0.6,0.5
O=C(CN1CCC(c2nc3ccccc3s2)CC1)N1CCCCC1,4.5,nt,0.0,-0.9,0.662,nt,-1.2,-0.9,-1.5

Screening data deposited in PubChem BioAssay by several laboratories.

Not all compounds are listed. The share of hits here may be higher or lower than overall.
